UCH37 DUB inh: inhibitors of human deubiquitinating enzyme UCH37; inhibition, % (concentration not given with the values); AID 588478; 0.33% of 330,000 active; purified proteasome/UCH37, Ub-AMC cleavage fluorescence;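 active = mean of two replicates above 20%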;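 also: 0% = compound-free wells with enzyme and 100% = wells lacking proteasome; stock transfer was 100 nL into about 20 µL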
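Signal – fluorescence, ex 355 nm, em 460 nm · System – Proteasome-bound UCH37 · Input – 0.15 nM proteasome as dispensed · Timing – 30 min preincubation with enzyme, 25 min cleavage at room temperature · Read-out basis – percent inhibition of cleavage signal versus uninhibited and no-proteasome wells · Medium – Tris-HCl pH 7.4 with ATP-MgCl2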
Vif A3G: HIV-1 Vif–A3G interaction blockers – biochemical, TR-FRET, GST-Vif 1-94, biotin-A3G peptide, dose response retest, primary screen (AID 1117319); TR-FRET GST-Vif / biotin-A3G peptide binding; higher % means a stronger effect; test concentration not given here; strong numbers were not always called active; one-dose inhibition, %; IC50 in µM for titrated hits; 0.57% of 260,000 active;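 active = above the screen mean plus three standard deviations and confirmed in dose response; inconclusive = results disagree or hit not tested in dose response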;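 also: Vif residues 1-94 fused to GST binding biotinylated APOBEC3G peptide 110-148; 0% = full assay without inhibitor and 100% = GST in place of GST-Vif; retest series ran down from 100 µM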
E coli growth: blocks Escherichia coli growth; OD600, 23 h; stronger effect = lower value; OD600 absorbance (concentration not given with the values); 0.21% of 330,000 active; AID 1053175;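 active = OD600 absorbance below the run mean of sample wells minus 3.6 SD, in any replicate, cut at about 0.56 in these data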;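 also: stock transfer was 300 nL into about 60 µL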
B2AR ag: activates human beta-2 adrenergic receptor causing internalization. 0.43% of 340,000 active. response, % (no concentration beside the values). Am2.2-beta2AR cells, FAP receptor internalization, flow cytometry; reference of the scale not given here;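 active = response above a set limit, near 3 SD of response in nonfluorescent compounds, cut at about 42% in these data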;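 also: stock transfer was 100 nL into about 11 µL; a reference agonist was the positive control; negative values mostly stem from fluorescent compounds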
LANA-H2B inh: blocks KSHV LANA binding to histone H2A/H2B; AID 2629; cell-free LANA-H2A/H2B peptide, fluorescence polarization; 0.6% of 320,000 active; inhibition, % (test concentration not listed); in the data active = inhibition mostly above about 10%, no sharp cut-off; inactive = mostly below about 6.7%;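 also: stock transfer was 7.5 nL into about 10 µL; 0% = median of vehicle wells and 100% = median of positive control wells; one replicate is shown; the record names a cut of 25% in any replicate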
Target sequence (Q9QR71 whole entry, looked up): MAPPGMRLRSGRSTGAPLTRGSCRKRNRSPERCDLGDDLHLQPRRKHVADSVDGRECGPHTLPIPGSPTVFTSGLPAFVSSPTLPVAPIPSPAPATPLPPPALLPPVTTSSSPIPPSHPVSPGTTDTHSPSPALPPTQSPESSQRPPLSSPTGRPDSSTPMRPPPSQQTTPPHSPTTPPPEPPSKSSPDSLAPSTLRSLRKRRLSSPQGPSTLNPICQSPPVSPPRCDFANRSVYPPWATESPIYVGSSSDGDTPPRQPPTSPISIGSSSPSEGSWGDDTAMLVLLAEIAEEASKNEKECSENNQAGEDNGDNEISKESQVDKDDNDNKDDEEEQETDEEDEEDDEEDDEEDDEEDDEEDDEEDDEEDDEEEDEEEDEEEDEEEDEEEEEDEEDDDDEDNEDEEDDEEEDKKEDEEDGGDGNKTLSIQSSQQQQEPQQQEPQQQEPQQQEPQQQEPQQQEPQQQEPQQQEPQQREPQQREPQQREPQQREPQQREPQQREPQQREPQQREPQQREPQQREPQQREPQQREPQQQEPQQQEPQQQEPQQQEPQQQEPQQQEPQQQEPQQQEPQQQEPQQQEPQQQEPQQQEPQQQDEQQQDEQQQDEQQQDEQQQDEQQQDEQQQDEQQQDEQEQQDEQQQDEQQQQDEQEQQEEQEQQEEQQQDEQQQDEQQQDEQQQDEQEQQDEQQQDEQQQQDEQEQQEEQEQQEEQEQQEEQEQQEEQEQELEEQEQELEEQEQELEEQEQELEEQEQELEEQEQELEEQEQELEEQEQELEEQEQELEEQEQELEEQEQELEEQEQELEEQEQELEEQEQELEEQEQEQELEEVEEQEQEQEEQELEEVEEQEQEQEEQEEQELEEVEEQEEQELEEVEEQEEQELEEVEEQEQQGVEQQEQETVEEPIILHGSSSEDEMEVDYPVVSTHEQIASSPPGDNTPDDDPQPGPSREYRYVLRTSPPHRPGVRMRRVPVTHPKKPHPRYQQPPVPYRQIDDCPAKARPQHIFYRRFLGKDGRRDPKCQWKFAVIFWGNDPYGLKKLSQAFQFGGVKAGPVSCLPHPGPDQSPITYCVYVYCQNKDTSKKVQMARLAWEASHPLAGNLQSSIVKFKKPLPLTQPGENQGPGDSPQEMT
HNF4A DNA FP: change in binding of human HNF4 alpha to DNA. P41235. HNF4a-FITC DNA binding, fluorescence polarization, 1 h. 0.3% of 360,000 active. AID 1224865. activity change, % at 10 µM; in the data active = activity change above about 30%, passing the limit was not always enough;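 also: controls were the assay level and a saturating level of protein; the project sought stronger binding though the title names inhibitors; some compounds called inactive have numbers as strong as hits; positive values seem to mean higher polarization but the record does not say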
A1 inh: inhibitors of the anti-apoptotic protein A1, read as caspase activation; MEF A1-2A-BIM cells, Caspase-Glo 3/7 luminescence, 3 h; percent of clofoctol response, vehicle zero; 0.066% of 330,000 active; caspase activation, % (no concentration beside the values); AID 2462;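 active = over half of replicate activation scores above 10%, or exactly half above 10 with the replicate mean above 10; inconclusive = replicate mean below 10 yet half the replicates above 10; inactive = over half of replicates below 10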;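 also: wells of about 30 µL received 50 nL stock; many hits fall short of the cut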
Active calls of the source: *; u = inconclusive; x = not tested or not shown; & = joins results of further samples.

SMILES	UCH37 DUB inh	Vif A3G	E coli growth	B2AR ag	LANA-H2B inh	HNF4A DNA FP	A1 inh
CC(C)C(NS(=O)(=O)c1cccs1)C(=O)Nc1nc(C(C)(C)C)cs1 (stereo not drawn)	1.8	-5%	0.65	4	4.9	1.9	0.6
CC(=O)/C=C/c1ccc2ccccc2n1	3.2	-9%	0.7	15	-3.7	-1.8	0.0
Cc1ccc(NC(=O)CSc2nnc(-c3cccnc3)o2)c(C)c1	-1.0	-10%	0.67	-6	0.1	2.8	1.4
COC(=O)c1ccccc1NC(=O)CN(CCc1ccccc1)S(C)(=O)=O	-1.4	10%	0.7	0	6.1	-1.4	0.1
COc1ccccc1CNc1ccc2nnc(CCNC(=O)c3ccc(C)cc3)n2n1	1.6	-1%	0.72	0	2.6	3.3	0.8
COc1ccc(C(C)=O)cc1CN1C(=O)NC(CC(C)C)C1=O (stereo not drawn)	-0.3	-8%	0.68	-3	0.7	-0.3	0.0
CCC(C)[C@H](NC(=O)NCCCc1ccccc1)C(=O)OC (stereo partly drawn)	0.2	3%	0.69	3	2.5	5.2	0.9
CC(=O)N1N=C(c2ccccc2)CC1c1cccc([N+](=O)[O-])c1 (stereo not drawn)	4.7	-1%	0.65	-9	-0.9	0.3	0.2
O=C(Nc1ccc2c(c1)OCO2)c1ccc(S(=O)(=O)NCC2CCCO2)cc1 (stereo not drawn)	3.1	2%	0.79	-9	2.2	0.7	-0.5
COc1cc2c(c(O)c1OC)-c1c(cc(OC)c(OC)c1OC)C[C@@H](C)[C@@H](C)C2	3.0	x	x	3	0.7	-2.8	0.1
Cc1cccc2cc(CN(Cc3ccco3)C(c3nnnn3CCc3ccccc3)C(C)C)c(=O)[nH]c12 (stereo not drawn)	-3.1	-12%&-5%	0.79	0	0.4	1.7	-0.2
COc1ccc(-n2cnnc2SCC(=O)NC2CCCc3ccccc32)cc1 (stereo not drawn)	2.0	x	0.64	2	-7.1	1.2	-0.6
O=[N+]([O-])c1cccc(S(=O)(=O)N2CCN(S(=O)(=O)N3CCOCC3)CC2)c1	1.3	x	0.71	-2	-7.4	3.9	-0.7
Cc1ccc(CNC(=O)C2CCCN(c3ncnc4c3nc3n4CCCCC3)C2)cc1 (stereo not drawn)	-1.6	x	0.68	4	3.7	-1.1	-0.4
CCC(C)NC(=O)CO/N=C/c1ccc(C(=O)OC)cc1 (stereo not drawn)	x	5%	x	11	-1.5	0.4	0.9
O=C(CCC1CCCC1)NCc1ccccn1	-0.1	-1%	0.72	14	0.7	-2.9	-0.3
Cc1cc(C(=O)NC2CCCN(Cc3ccccc3F)C2)n[nH]1 (stereo not drawn)	-0.2	-1%	0.69	-7	5.7	11	-0.3
CCOC(=O)N1CCN(C(=O)Cc2c(C(=O)O)n(C)c3ccccc23)CC1	3.5	-8%	0.71	5	5.7	-2.1	0.8
C=CCn1c(-c2ccc(OC)cc2)nc2nc3ccccc3nc21	-419	18%	0.65	-2	-7.1	-2.0	-1.2
O=C1CCC/C(=N/Nc2ccc(Cl)cc2)C1	x	7%	x	7	-0.1	-5.7	-1.3
COc1cc(N=Nc2ccc(C)cc2S(N)(=O)=O)c(C)cc1N	7.0	6%	0.69	7	x	3.2	x
CC(CCc1ccc(O)cc1)N1CCC(Oc2ccc(C(=O)N3CCCC3)cc2)CC1 (stereo not drawn)	1.3	x	0.69	4	-0.9	-0.5	1.0
COc1ccc(S(=O)(=O)N2CCCCC2)cc1C(C)C	5.6	2%	0.77	3	-3.5	2.9	1.0
CN(C)CCN1CC(O)=C(c2nc3ccccc3s2)C1=N	-1.4	24%	0.68	-6	-5.5	12	0.3
CCc1nn(-c2ccccc2)c(N)c1C#N	4.8	1%	0.68	2	4.9	-1.7	-0.7

Carrying on.
SMILES	UCH37 DUB inh	Vif A3G	E coli growth	B2AR ag	LANA-H2B inh	HNF4A DNA FP	A1 inh
Cn1c(SCC(=O)N2CCCc3ccccc32)nnc1-c1ccccc1	-0.3	4%	0.69	-3	-3.5	1.1	0.2
O=C(Cc1ccc(Cl)c(Cl)c1)Nc1ccc2[nH]c(=O)[nH]c2c1	-2.8	28%	0.68	-3	4.0	4.7	-0.5
Cc1ccc(CNC(=O)c2ccc(COc3ccccc3)cc2)cc1	1.1	x	0.68	-8	0.6	-1.6	-2.0
COCCCNC(=S)Nc1ccc(CC(=O)O)cc1	7.3	15%	0.71	0	1.0	1.6	0.9
CNS(=O)(=O)c1cc(N)ccc1C	2.2	-4%	0.71	3	5.1	-2.7	-0.3
O=C(NCCC1=CCCCC1)C(=O)NCc1ccccc1	9.1	x	0.71	-1	-3.4	-0.1	-0.6
COc1ccccc1C(=O)Nc1c[nH]c(=O)[nH]c1=O	4.2	0%	0.66	-12	-4.4	1.9	-0.5
CCOc1cc(-c2nc3ccccc3s2)ccc1O	-138	0%	0.65	29	1.7	2.9	-0.2
COc1ccc2c(c1)C(c1ccc(Cl)cc1)NC(=O)C2 (stereo not drawn)	-2.6	x	0.69	-1	-18	2.5	0.8
COc1c2c(cc(O)c1C(C)=O)OC(C)(C)C=C2	3.5	1%	0.62	7	x	2.7	x
CCc1ccc(/C=C2/SC(N3CCOCC3)=NC2=O)cc1	12	1%	0.65	-8	0.1	-1.2	-0.1
Cc1cc(=O)n2c(n1)SCOC2	2.0	16%	0.66	-9	0.5	7.2	0.4
Cc1cc(OCC(=O)Nc2ccc3c(c2)OCCO3)ccc1Cl	0.5	0%	0.69	11	0.0	-2.0	0.5
COC(=O)C1=C(N)N(c2ccccc2C(F)(F)F)C2=C(C(=O)CCC2)C1c1ccc2c(c1)OCO2 (stereo not drawn)	-6.5	-2%	0.71	1	1.6	2.8	0.0
CCOC(=O)c1[nH]c2cc3c(cc2c1NC(=O)CN1CCCC1)OCO3	-174	5%	0.66	4	-3.0	2.4	0.9
COc1cccc(CNC(=O)c2cc(COc3c(F)cccc3F)on2)c1	x	-1%	x	3	x	4.2	-0.7
COc1ccc(N(CC(=O)N/N=C(\C)c2ccc(OC)c(OC)c2)S(=O)(=O)c2ccccc2)cc1	x	2%	x	-3	0.2	2.2	-0.3
CCOC(=O)c1cc(-c2ccc(OC(F)F)cc2)nc2c1c(=O)[nH]c(=O)n2C	-40	14%	x	23	-4.6	-1.0	-0.1
COc1ccc(N2CCN(C(=O)c3cc([N+](=O)[O-])ccc3N3CCN(CCO)CC3)CC2)cc1	13	x	0.66	1	0.3	0.4	0.4
O=c1cc(O)c2c(=O)n(Cc3ccccc3)c3ccccc3c2o1	-31	x	0.68	4	-3.8	4.6	-0.3
COCCCn1cnnc1SCC(=O)Nc1ccc(S(=O)(=O)N2CCCC2)cc1	-0.5	-1%	0.8	3	-0.5	0.5	0.7
O=C(CNC(=O)c1ccc(F)cc1)N/N=C/c1cccnc1	x	x	x	4	-1.7	0.8	-0.4
Cc1ccc(F)cc1CNC(=O)C1CCC(=O)N(C2CC2)C1 (stereo not drawn)	1.7	x	0.7	-8	-0.6	0.8	-0.1
CCN(CC)c1ccc(/C=N/OC(C)C(=O)Nc2ccc(C)cc2)cc1 (stereo not drawn)	x	1%	x	16	-2.4	4.7	0.5
CC(=O)Nc1ccc(S(=O)(=O)N(C)CC(=O)NNC(=O)Cc2nc3ccccc3n2C)cc1	x	-6%	x	-6	3.6	2.9	0.3

Quoted at random: 3 records from the list, in no set order.
SMILES	UCH37 DUB inh	Vif A3G	E coli growth	B2AR ag	LANA-H2B inh	HNF4A DNA FP	A1 inh
COc1ccc(C(C)=O)cc1CN1C(=O)NC(CC(C)C)C1=O (stereo not drawn)	-0.3	-8%	0.68	-3	0.7	-0.3	0.0
COc1ccc(S(=O)(=O)N2CCCCC2)cc1C(C)C	5.6	2%	0.77	3	-3.5	2.9	1.0
O=C(NCCC1=CCCCC1)C(=O)NCc1ccccc1	9.1	x	0.71	-1	-3.4	-0.1	-0.6

Next section.
SMILES	UCH37 DUB inh	Vif A3G	E coli growth	B2AR ag	LANA-H2B inh	HNF4A DNA FP	A1 inh
CCOC(=O)C1CCN(C(=O)/C=C/c2ccc(OC)cc2)CC1	0.5	1%	0.7	8	-5.7	0.8	0.7
O=Cc1c(N2CCN(CCO)CC2)nc2ccccn2c1=O	x	x	x	-4	3.9	-21	-0.9
COC(=O)c1cn(NC(=O)Cc2c(F)cccc2Cl)c(=O)c2ccccc12	-0.1	13%	0.69	-8	2.1	0.3	0.5
CCCCn1c(/N=C/c2ccccc2NS(=O)(=O)c2ccc(C)cc2)nc2ccccc21	x	x	x	28	-4.5	1.7	-0.3
c1cn(-c2ncnc3sc4c(c23)CCCC4)cn1	-7.8	3%	0.76	-6	-5.7	-1.9	0.2
CCc1ccc([C@@H]2CC=C(C(=O)O)[C@H](c3ccc(Cl)cc3)N2S(=O)(=O)c2ccc(C)cc2)cc1	x	x	x	-1	0.0	1.1	0.5
CC(=O)c1c(C)[nH]c(C(=O)CSc2nnc(-c3ccco3)n2Cc2ccccc2)c1C	5.1	15%	0.7	19	2.2	2.3	0.3
COc1ccc(C(=O)O)cc1S(=O)(=O)Nc1ccc2cn[nH]c2c1	3.9	7%	0.72	-7	1.7	7.4	-1.0
Cc1cccc(C)c1NC(=O)C1(N2C(=O)CC2c2ccccc2)CCCCC1 (stereo not drawn)	3.5	x	0.71	-1	-3.3	-0.7	0.5
O=C(NC12CC3CC(CC(C3)C1)C2)N1CCN(c2ncccn2)CC1	2.3	-10%	0.65	2	-6.2	0.2	u
O=C(N/N=C/c1ccc(Br)cc1)c1ccc(Br)o1	x	14%	x	-2	-5.4	-1.9	-7.6
CCCOc1ccc(/C(O)=C2\C(=O)C(=O)N(c3ccccn3)C2c2ccccc2F)cc1C (stereo not drawn)	6.8	-12%	0.61	1	3.0	-4.1	0.1
Cc1cc(OCC(=O)NCCc2cccc(F)c2)c2c(C)cc(=O)oc2c1	-10.0	-1%	0.71	17	-6.3	2.2	-0.5
COc1ccc(NC(=O)C(CCSC)NC(N)=O)cc1NS(=O)(=O)c1ccc(F)cc1 (stereo not drawn)	3.8	-12%	0.65	-2	-3.2	0.1	0.4
Cc1ccc(S(=O)(=O)NCCSCc2ccco2)cc1	1.3	0%	0.68	-1	-7.2	-0.4	0.9
CC(=O)Nc1ccc(N=Cc2c(O)ccc3ccccc23)cc1	6.4	x	0.68	9	0.8	77*	0.5
COc1ccc(/C=C2/C(=N)N3N=C(CC(=O)N4CCCC4)SC3=NC2=O)cc1OC	12	x	0.68	-1	-7.5	-3.9	-0.4
CCOC1(C(F)(F)F)NC(=O)N(Cc2ccc(OC)cc2)C1=O (stereo not drawn)	-2.1	5%	0.69	-6	-5.2	2.1	-0.8
COc1cccc(N2CC(O)=C(c3nc4ccccc4s3)C2=N)c1	-30	-38%	0.71	1	-4.7	-0.7	-0.2
CCO[C@H]1OC(C(=O)N2CCN(Cc3ccc4c(c3)OCO4)CC2)=C[C@@H](c2csc3ccccc23)[C@@H]1CCCO	4.2	-5%	x	0	7.0	-0.9	0.4
C[C@H]1CN=C(N(C)C)N1CCCC1CCCCC1	3.4	x	x	-5	-2.4	-1.2	0.8
O=C(c1cc2n(n1)C(C(F)(F)F)CC(c1ccc(F)cc1)N2)N1CCCC1 (stereo not drawn)	5.0	-2%	0.68	-2	2.6	0.5	-0.6
CN=C(Nc1cc(C)nn1CCC#N)c1ccccc1F	2.9	1%	0.68	3	6.3	-0.6	-1.0
O=C(Cn1c(NCCCO)nc2ccccc21)c1ccc(Cl)cc1Cl	4.7	2%	0.67	-15	3.8	-2.2	0.4

Screening data: PubChem, several laboratories
